GIRK2 activ: opens human GIRK2 potassium channels; HEK293-GIRK2 thallium flux, Thallos fluorescence; 0.05% of 63,000 active; P48051; calls only for hits at 25 µM;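 active means among the strongest 0.2% of first-round signals and kept after retests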;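 further: first round at about 10 µM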
Target sequence (P48051 whole entry, looked up): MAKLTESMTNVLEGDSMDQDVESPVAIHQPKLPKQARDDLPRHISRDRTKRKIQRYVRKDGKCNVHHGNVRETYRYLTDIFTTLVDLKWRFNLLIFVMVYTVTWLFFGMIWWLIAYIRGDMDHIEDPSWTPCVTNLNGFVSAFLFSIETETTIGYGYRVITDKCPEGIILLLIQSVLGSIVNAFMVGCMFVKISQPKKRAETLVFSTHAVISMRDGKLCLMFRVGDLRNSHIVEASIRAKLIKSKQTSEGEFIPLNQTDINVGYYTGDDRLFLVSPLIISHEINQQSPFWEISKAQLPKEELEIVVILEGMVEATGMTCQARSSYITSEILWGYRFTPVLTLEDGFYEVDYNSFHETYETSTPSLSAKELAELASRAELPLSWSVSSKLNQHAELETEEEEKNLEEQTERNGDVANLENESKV
Calls only; i = inactive. Only part of the results is shown; count on the stated rates, not on these rows.

SMILES | GIRK2 activ
O=C(CCc1csc(NC(=O)c2ccco2)n1)Nc1ccc(OC(F)(F)F)cc1 | i
COCC1CCCN(CC(=O)c2ccc(OC)cc2)C1 (centres undefined) | i
CCCc1cc2c(=O)c(-c3ccc4c(c3)OCCO4)coc2cc1OC(=O)CC | i
CCOc1ccc(NC(=O)CCn2c(=O)oc3ccc(Cl)cc32)cc1 | i
O=C(NCCCN1CCOCC1)C(=O)c1cn(CC(=O)N2CCOCC2)c2ccccc12 | i
O=C(c1ccccc1C(F)(F)F)N1CCN(S(=O)(=O)C2CC2)CC1 | i
Cc1ccc(OCC(O)CN(CCO)CCO)cc1 (centres undefined) | i
COc1ccc2c(CNc3ccc(C)cc3C)cc(=O)oc2c1 | i
Cc1ccc(Cl)cc1N1CCN(C(=O)c2cn(-c3ccc(C#N)cc3)cn2)CC1 | i
COc1cc(NC(=O)Cn2ccn3nc(-c4ccc(C)cc4)cc3c2=O)cc(OC)c1 | i
O=C(Nc1ccon1)c1nnn(-c2ccc(Br)cc2)n1 | i
CC(C)CN(CC(C)C)C(=O)c1nnn(-c2ccc(F)cc2)n1 | i
COCCN1COc2ccc3c(=O)c(Oc4cccc(OC)c4)c(C(F)(F)F)oc3c2C1 | i
CCOc1ccc(S(=O)(=O)N2C(C)CCCC2C)c2ccccc12 (centres undefined) | i
Cc1ccc(-c2ccc3nn(CC(=O)Nc4ccc(Br)cc4F)c(=O)n3n2)cc1 | i
Cc1ccc(N2C(=O)N(c3cccc(C)c3)C3CS(=O)(=O)CC32)cc1 (centres undefined) | i
COc1ccc(-c2csc(SCC(=O)N3CCOCC3)n2)cc1 | i
Cc1nc(-c2ccccn2)cc(=O)n1CC(=O)Nc1ccccc1C(F)(F)F | i
COc1ccc(C2CCN(C(=O)c3cc(OC)cc(OC)c3)C2)cc1 (centres undefined) | i
COC(=O)Cn1cnc2c(-c3ccccc3C)csc2c1=O | i
CCc1cccc(NC(=O)C2CCN(c3ccc(S(=O)(=O)c4ccc(C)cc4)nn3)CC2)c1 | i
COC(=O)C1(Cc2ccc(O)cc2)OC(=O)C(O)=C1c1ccc(O)cc1 (centres undefined) | i
Cc1cc(C)c(C)c(S(=O)(=O)NCc2ccc(C(=O)O)cc2)c1C | i
COc1ccc(C)cc1NC(=O)NC1(c2nc(C)no2)CCCCC1 | i
CCn1c(=O)c2c(nc3n2CCN3c2cc(C)ccc2OC)n(C)c1=O | i
Cc1nc(SCc2cccc(Cl)c2)[nH]c(=O)c1CC(=O)N1CCN(C(=O)c2ccco2)CC1 | i
CCSc1ccccc1C(=O)NC1CCN(c2nccs2)CC1 | i
Cc1ccc(N2CCn3c2nc2c3c(=O)[nH]c(=O)n2C)c(C)c1 | i
O=C(NCc1cccs1)N1CCN(CC(O)c2ccco2)CC1 (centres undefined) | i
O=C(NCc1nn(C2CCCC2)c(=O)c2ccccc12)c1ccc2nsnc2c1 | i

Reformatted: 4 of the compounds above.
CCc1cccc(NC(=O)C2CCN(c3ccc(S(=O)(=O)c4ccc(C)cc4)nn3)CC2)c1
  GIRK2 activ: i
COC(=O)C1(Cc2ccc(O)cc2)OC(=O)C(O)=C1c1ccc(O)cc1 (centres undefined)
  GIRK2 activ: i
Cc1cc(C)c(C)c(S(=O)(=O)NCc2ccc(C(=O)O)cc2)c1C
  GIRK2 activ: i
COc1ccc(C)cc1NC(=O)NC1(c2nc(C)no2)CCCCC1
  GIRK2 activ: i

(cont.)
SMILES | GIRK2 activ
CS(=O)(=O)c1ccc(N2CCN(c3ccc(F)cc3)CC2)c([N+](=O)[O-])c1 | i
CC(NC(=O)CN(C)c1nc2c(Cl)cccc2s1)c1ccccc1 (centres undefined) | i
O=C(Nc1ccc2c(c1)Cc1ccccc1-2)C1COCC(=O)N1Cc1cccs1 (centres undefined) | i
COc1ccc(N2CCN(CCCn3c(C)cn4c5c(=O)n(C)c(=O)n(C)c5nc34)CC2)cc1 | i
COc1cccc(NC(=O)N2CCC(c3nnc(C(F)(F)F)o3)CC2)c1OC | i
CC(C)N(CC#CCNC(=O)Cc1ccccc1)C(C)C | i
CCc1ccccc1-n1c(-c2ccccc2)cn2c3c(=O)n(CCN4CCOCC4)c(=O)n(C)c3nc12 | i
COC(=O)c1ccc2c(=O)n(Cc3ccc(C(=O)NCCN4CCCCC4)cc3)c(=S)[nH]c2c1 | i
Cc1ccc(C2CC3C4NN=C(CCC(=O)N5CCSCC5)N4C=CN3N2)cc1C (centres undefined) | i
Cc1cc(C(O)CCNC(=O)C(=O)NCCc2ccccc2)c(C)o1 (centres undefined) | i
COc1cccc(-c2csc(-n3nc(C)cc3NC(=O)c3ccc(C)c([N+](=O)[O-])c3)n2)c1 | i
O=C(N1CCC(c2ccccc2)C1)C1(c2ccccc2)CCOCC1 (centres undefined) | i
O=C(Nc1nnc(-c2ccc3c(c2)OCCO3)o1)Nc1cccs1 | i
COc1ccc(-c2nc(N)nc(C)c2-c2ccc(OC)c(OC)c2)c(O)c1 | i
Cc1noc(CNS(=O)(=O)c2ccc(Br)s2)n1 | i
COc1cccc(C(=O)COC(=O)c2ccc(O)cc2O)c1 | i
Cc1ccc(SCCCC(=O)Nc2sc(C)c(C)c2C#N)cc1 | i
COc1cc(C)c(S(=O)(=O)NCCNc2cc(Nc3ccccn3)nc(C)n2)cc1C | i
Cc1nnc(C2CCN(CC(=O)Nc3ccc(F)c(Cl)c3)CC2)s1 | i
Cc1cccn2cc(-c3cccc(NC(=O)C4CCN(c5ccc(=O)n(C)n5)CC4)c3)nc12 | i
CC(C)c1ccc(NC(=O)CCn2cnc3c([nH]c4ccccc43)c2=O)cc1 | i
Cc1csc(CN2CCN(C(=O)C(C)(C)Oc3ccc(Cl)cc3)CC2)n1 | i
CCOC(=O)c1cnn2ccc(NC(=O)C3c4ccccc4Oc4ccccc43)cc12 | i
COc1ccc(NC(=O)NCCn2ncccc2=O)cc1OC | i
COc1ccc(C(=O)Nc2ccc(S(=O)(=O)NC(C)=O)cc2)nn1 | i
O=c1c2ccccc2c(-c2nc(-c3ccncc3)no2)nn1-c1cccc(Br)c1 | i
CCn1c(SCC(=O)Nc2ccc(F)cc2)nc2nc(N3CCC(C)CC3)sc2c1=O | i
COc1ccccc1NC(=O)c1ccc(CSc2nc(C)cc(=O)[nH]2)cc1 | i
CN(C)c1cccc(C(=O)NCC2CCN(C(=O)Oc3ccccc3)CC2)c1 | i
COC(=O)Nc1nc2c(s1)CN(C(=O)c1cccc(C#N)c1)CC2 | i
CCCCNC(=O)C1CCC(Cn2c(=O)c3sccc3n(Cc3ccc(F)cc3)c2=O)CC1 (centres undefined) | i
COc1ccc(Cl)cc1NC(=O)N1CCC(CSc2nccn2C)CC1 | i
O=C(c1cc(Br)ccc1Cl)N(CCc1cccs1)C1CC1 | i
O=C(NCCNc1cc(-n2cccc2)ncn1)C1CCCC1 | i
NC(=O)C1CCN(CCOc2ccc(-c3[nH]ncc3-c3ccc(Cl)cc3)c(O)c2)CC1 | i
O=C(NCCn1nc(-c2ccco2)ccc1=O)c1cc(-c2ccc(F)cc2)n[nH]1 | i
Cc1nc(N2CCCC2)nc(C)c1NC(=O)Nc1ccccc1 | i
CN(C)C(=O)c1ccc(S(=O)(=O)N2CCC(C(N)=O)CC2)o1 | i
CCOC(=O)c1ccc(NC(=O)c2cc3cccnc3n(C)c2=O)cc1 | i
COc1cccc2c1c(C1=C(c3cn(C)c4ccccc34)C(=O)NC1=O)cn2C | i
COc1cc(OC)cc(-c2nc(-c3nnn(-c4ccccc4)c3-c3ccncc3)no2)c1 | i
Cc1cn2c3c(=O)n(Cc4ccccc4F)c(=O)n(C)c3nc2n1-c1ccccc1N | i
COc1ccc(N2CCCn3c2nc2c3c(=O)n(Cc3ccccc3F)c(=O)n2C)cc1 | i
COc1ccc(-c2nnc(NC(C)=O)o2)c(OC)c1 | i
CC(C)OCCCNC(=O)c1c(N)n(/N=C\c2ccco2)c2nc3ccccc3nc12 | i
COC(=O)NCc1nn(C)c2c1CCCC2 | i
CSc1ccccc1C(=O)NCCC(O)c1ccc2c(c1)OCO2 (centres undefined) | i
CCCCn1c(=O)c2c(nc3n(C(C)c4ccccc4)c(C)cn23)n(C)c1=O (centres undefined) | i
COc1ccc(/C=C2\SC(=S)N(c3ccc(C(=O)O)cc3)C2=O)cc1OC | i
Cc1cc(OCC(=O)Nc2ccc(C)c(F)c2)nc(N2CCN(c3ccccc3)CC2)n1 | i

Other records follow:
SMILES | GIRK2 activ
Cn1cc(C(=O)NCCn2nc(C(F)(F)F)n(C)c2=O)nn1 | i
Cc1cc([N+](=O)[O-])ccc1NC(=O)/C=C/C1=Cc2ccccc2OC1 | i
COC(=O)c1c(C)oc2cc(Br)c(O)c(C=O)c12 | i
COc1cccc(-c2csc(-n3nc(C)cc3NC(=O)c3ccccc3Br)n2)c1 | i
O=C(c1c(F)cccc1F)N(Cc1ccoc1)Cc1cccs1 | i
CCCC(=O)N1CCN(c2oc(-c3ccc(COc4ccccc4C)o3)nc2C#N)CC1 | i
Cc1ccc(C(=O)Nc2nc(-c3ccc4c(c3)NC(=O)C(C)O4)cs2)cc1C (centres undefined) | i
C#CCn1c(=NC(=O)CCCS(=O)(=O)Cc2ccccc2)sc2cc(OC)ccc21 | i
COc1ccc(Br)c(C(=O)NCC2(c3ccc(F)cc3)CCOCC2)c1 | i
COc1ccc(S(=O)(=O)CC(=O)N=c2sc3cc(OC)c(OC)cc3n2C)cc1 | i

Fetched by compound from above:
SMILES | GIRK2 activ
COC(=O)c1c(C)oc2cc(Br)c(O)c(C=O)c12 | i
COc1ccc(S(=O)(=O)CC(=O)N=c2sc3cc(OC)c(OC)cc3n2C)cc1 | i
COc1ccc(Br)c(C(=O)NCC2(c3ccc(F)cc3)CCOCC2)c1 | i
Cc1cc([N+](=O)[O-])ccc1NC(=O)/C=C/C1=Cc2ccccc2OC1 | i
Cc1ccc(C(=O)Nc2nc(-c3ccc4c(c3)NC(=O)C(C)O4)cs2)cc1C (centres undefined) | i

Continuation.
SMILES | GIRK2 activ
COC(=O)CC1=CC(SCC(=O)NC2CCc3ccccc32)=Nc2ccccc2N1 (centres undefined) | i
COc1ccc(C(=O)NC2CC(=O)N(c3ccc(C)c(C)c3)C2)c(OC)c1 (centres undefined) | i
CCCSc1ncc(CO)n1Cc1ccc(C)cc1 | i
CCOC(=O)CCC(=O)N1CCOC(c2ccccc2)C1 (centres undefined) | i
Cc1cc(C)c(S(=O)(=O)N2CCN(C(=O)c3cccc([N+](=O)[O-])c3)CC2)c(C)c1 | i
Cc1ccc(CNC(=O)CSc2nccnc2N2CCN(c3ccccc3)CC2)cc1 | i
O=C(NCc1ccccc1C(F)(F)F)c1ccc(-n2cccn2)nc1 | i
Cc1ccc(N2C(=O)N(CC(=O)NC3CCCCC3)c3ccccc3S2(=O)=O)cc1F | i
Cc1cccc(-c2noc(-c3cccn4c(=O)n(Cc5cc(=O)n6ccccc6n5)nc34)n2)c1 | i
C/C=C1\C(OC2OC(CO)C(O)C(O)C2O)OC=C(C(=O)OC)C1CC(=O)OCC1C(C)C(OC(=O)CC2C(C(=O)OC)=COC(OC3OC(CO)C(O)C(O)C3O)/C2=C\C)CC1C(CO)CO (centres undefined) | i
CCCCCCCC(=O)CC[C@@H]1[C@@H](C/C=C\CCCC(=O)NCC)[C@@H](O)C[C@H]1O | i
CSc1cccc(NC(=O)COc2cc(C)nc(N3CCCC3)n2)c1 | i
COc1ccc(NC(=O)Nc2ccc(Nc3ccc(-n4nc(C)c(C)c4C)nn3)cc2)cc1 | i
COc1ccc(-c2ccc(=O)n(C(C)C(=O)NC3CCCC3)n2)cc1 (centres undefined) | i
O=C(c1csc(-c2ccccc2)n1)N1CCN(C(=O)c2cnn3ccccc23)CC1 | i
COc1ccccc1-n1ncc2c(C)nnc(SCC(=O)Nc3ccc(Cl)cc3)c21 | i
COc1cccc(-n2nnc(C(=O)NCc3ccc(F)cc3F)c2-c2cccnc2)c1 | i
COC(=O)c1c(NCCc2ccccc2)c2cc(Cl)ccc2[nH]c1=O | i
COC(=O)c1scc(-c2ccc(C)cc2)c1S(=O)(=O)N1CCC2(CC1)OCCO2 | i
CCOc1ccc(C(=O)NCC2CCN(C)CC2)cc1OCC | i

A different layout for some results above:
Compound	GIRK2 activ
COc1cccc(-n2nnc(C(=O)NCc3ccc(F)cc3F)c2-c2cccnc2)c1	i
CCCCCCCC(=O)CC[C@@H]1[C@@H](C/C=C\CCCC(=O)NCC)[C@@H](O)C[C@H]1O	i
COC(=O)c1c(NCCc2ccccc2)c2cc(Cl)ccc2[nH]c1=O	i
CCOc1ccc(C(=O)NCC2CCN(C)CC2)cc1OCC	i
COc1ccc(NC(=O)Nc2ccc(Nc3ccc(-n4nc(C)c(C)c4C)nn3)cc2)cc1	i

Further structures follow.
SMILES | GIRK2 activ
COCCN1CCC(CNC(=O)Nc2cccc(OC)c2OC)CC1 | i
COc1ncccc1C(=O)Nc1ccc2c(c1)CCC(=O)N2 | i
CSc1cccc(N2Cc3ccccc3OC(C)C2=O)c1 (centres undefined) | i
CC(C)(Oc1ccc(Cl)cc1)C(=O)N1CCC(Oc2ccc(C#N)cn2)CC1 | i
COC(=O)c1ccc(S(=O)(=O)N2CCC(c3nnc(C(F)(F)F)o3)CC2)cc1 | i
O=C(C(c1ccccc1)c1ccccc1)N1CCCSCC1CN1CCCC1 (centres undefined) | i
Cc1cn2c3c(=O)n(CC(C)C)c(=O)n(C)c3nc2n1CC(C)C | i
CC(C)Oc1ccc(C(=O)N2CCN(c3ncnc4c3nnn4-c3ccc(Cl)cc3)CC2)cc1 | i
O=C(NCCCN1CCOCC1)c1cnn2c1OCCC2 | i
CCCCC[C@@H](O)/C=C/[C@@H]1[C@@H](C/C=C\CCCC(=O)O)[C@@H](O)C[C@H]1O | i
O=C(CSCc1ccccc1)N1CCC(Oc2ccccn2)CC1 | i
Cc1nnc(-c2cn(CC(=O)N3CCc4ccccc43)c3ccccc23)o1 | i
Clc1ccccc1-n1ncc2c1ncn1nc(-c3ccco3)nc21 | i
O=C(CN1CCC(c2nnc(-c3ccoc3)o2)CC1)c1ccc(Cl)cc1 | i
O=C(Nc1ccc2c(=O)c3cccc(F)c3oc2c1)c1ccccc1 | i
CCOCC(=O)NCCN1CCN(C(=O)OC(C)(C)C)CC1 | i
Cc1cccc(Cl)c1NC(=O)CN1CCC(c2nc(-c3ccccc3Cl)no2)CC1 | i

Screens deposited in PubChem BioAssay by Vanderbilt University.
